Assay outcomes as filed in PubChem.
CBX7 inh: CBX7 chromodomain binding inhibitors, primary screen, biochemical, AlphaScreen | Chromobox protein homolog 7 (Homo sapiens), O95931 | AlphaScreen His6-CBX7 / biotin-H3K27me3 peptide binding; hits give low values | normalised signal (fraction of DMSO) (no concentration beside the values) | actives 1.1% (n = 66,000) | AID 1224903, 2016; in the data active = normalised signal below about 0.5;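 also: 100 nL library stock added to about 20 µL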
Target sequence (O95931 whole entry, looked up): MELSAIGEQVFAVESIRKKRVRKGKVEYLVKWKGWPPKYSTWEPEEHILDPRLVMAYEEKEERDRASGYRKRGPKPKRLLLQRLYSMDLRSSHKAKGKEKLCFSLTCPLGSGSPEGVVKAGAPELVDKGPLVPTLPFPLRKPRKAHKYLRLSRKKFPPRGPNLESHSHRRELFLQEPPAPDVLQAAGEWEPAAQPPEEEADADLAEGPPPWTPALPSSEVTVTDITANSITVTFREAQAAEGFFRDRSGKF
CBX7 inh z-score: second read-out of CBX7 inh, no call of its own (marks repeat the call); z-score; measured here: z-score of CBX7 signal; some inactives read as strong as hits; reference of the scale not given here;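 same signal on another scale; lower means less binding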
The depositor's hits bear a star; & = joins results of further samples; ! = a repeat was not active. Not all compounds are listed. The share of hits here may be higher or lower than overall.

SMILES	CBX7 inh	CBX7 inh z-score
CCOC(=O)c1ccccc1NC(=O)c1c(-c2ccccc2Cl)noc1C	0.7	-1.9
Cc1ccc(NC(=O)c2cnn(-c3ccccc3)c2C2CCN(C(=O)OC(C)(C)C)CC2)c(C)c1	0.9	-2.6
CCOC(=O)c1c(-c2ccccc2)csc1NC(=O)c1onc(C)c1Cl	1.2	7.4
Cc1ccc(NC(=O)[C@H](CCS(C)(=O)=O)N2Cc3ccccc3C2=O)cc1	1.1	2
Cc1ccc(-c2cc3c(n2Cc2ccc(F)cc2)CC(C)(C)CC3=O)cc1	0.84	-1.1
Cc1nc2cc(-c3ccc(Cl)cc3)nn2c(C)c1CCC(=O)Nc1ccccc1	1	0.17
Cc1cccc2nc(-c3ccc(Cl)cc3)c(-c3ccc(Cl)cc3)nc12	1.5	3.4
COc1ccc(-c2csc(Nc3ccc(Oc4ccccc4)cc3)n2)cc1Br	0.42*!	-14*!
CC(=O)N1CCc2cc(S(=O)(=O)NCCCC(=O)O)ccc21	1.1	1.9
CC(=O)Nc1nc2ccccc2n1CCN1CCCC1	1	0.77
Cc1ccc(CNC(=O)CN2C(=O)COc3ccc(C)cc32)cc1	1.1	1.8
Cc1ccccc1CN1C(=O)c2ccccc2S(=O)c2ccc(C(=O)NC(C)C)cc21 (centres undefined)	0.94	-1.1

Random excerpt: 6 records from the list.
SMILES	CBX7 inh	CBX7 inh z-score
Cc1ccc(NC(=O)[C@H](CCS(C)(=O)=O)N2Cc3ccccc3C2=O)cc1	1.1	2
Cc1ccc(NC(=O)c2cnn(-c3ccccc3)c2C2CCN(C(=O)OC(C)(C)C)CC2)c(C)c1	0.9	-2.6
Cc1ccc(-c2cc3c(n2Cc2ccc(F)cc2)CC(C)(C)CC3=O)cc1	0.84	-1.1
COc1ccc(-c2csc(Nc3ccc(Oc4ccccc4)cc3)n2)cc1Br	0.42*!	-14*!
CC(=O)Nc1nc2ccccc2n1CCN1CCCC1	1	0.77
CCOC(=O)c1ccccc1NC(=O)c1c(-c2ccccc2Cl)noc1C	0.7	-1.9

The listing picks up; the two compounds before the break are reprinted first.
SMILES	CBX7 inh	CBX7 inh z-score
Cc1ccc(CNC(=O)CN2C(=O)COc3ccc(C)cc32)cc1	1.1	1.8
Cc1ccccc1CN1C(=O)c2ccccc2S(=O)c2ccc(C(=O)NC(C)C)cc21 (centres undefined)	0.94	-1.1
CCn1c(NC(=O)c2cccc(Cn3cc(Cl)cn3)c2)nc2ccccc21	0.98	-0.033
COc1ccc(CNC(=O)c2cc3sccc3n2Cc2ccc(F)cc2)cc1	1.1	1.5
Cc1ccc(-c2noc(CCC(=O)NCCC3=CCCCC3)n2)cc1	1	1.2
Cc1ccc(Sc2cc(C(=O)NCc3ccc4c(c3)OCO4)c3ccccc3n2)cc1	0.9	-2.9
Clc1ccc(-c2nn3c(-c4ccccc4)nnc3s2)cc1	1	0.3
CC1(C(=O)NC2CCCCC2)CCC(=O)N1CCc1ccccc1 (centres undefined)	1	0.19
CCCCNC(=O)c1cc(-c2ccc(OCC)cc2)nc2ccccc12	0.96	-0.94
Cc1cccc(C)c1OCC(=O)N(Cc1ccccc1)C1CCS(=O)(=O)C1 (centres undefined)	1	0.038
CCN(C(=O)CCc1nc(-c2ccccc2F)no1)c1cccc(Cl)c1	0.93	-1.1
O=S(=O)(c1ccccc1)c1ccc(-c2nnc(-c3ccccc3Cl)o2)cc1	0.98&1.2	-0.34&2.2
COc1ccc(NC(=O)c2oc3ccc(S(=O)(=O)N4CCCC4)cc3c2C)c(OC)c1	0.99	-0.24
Cc1cc(=O)n2nc(N3CCC(C(=O)NCc4cccc(Br)c4)CC3)sc2n1	1.2	2
COc1ccc(-c2nnc(NC(=O)c3ccc(S(=O)(=O)N(C)c4ccccc4)cc3)o2)c(OC)c1	0.99	-0.6
CCOc1ccc(-c2cc(-c3ccc4c(c3)OCO4)[nH]c(=O)c2C#N)cc1	0.88	-1.9
COc1ccc(C(=O)Nc2ccc3nc(N4CCN(c5ncccn5)CC4)cc(C)c3c2)cc1OC	1	1.3
CCOC(=O)Cc1nnc(NC(=O)c2ccccc2C)s1	1	0.85
COC(=O)c1cc2sc(Cl)cc2n1CC(=O)Nc1ccc(N(C)C)cc1	1	-0.036
Cc1cccc(CN2CCN(CC(=O)NCc3ccccc3Cl)C2=O)c1	1	2
O=C(CCn1c(=O)c2sccc2n(CC(=O)NCC2CCCO2)c1=O)NCc1ccc2c(c1)OCO2 (centres undefined)	0.85	-2.4
O=C(CSc1nnc(-c2ccc(F)cc2)o1)N1CCCC1	1.4	0.85
COC(=O)c1sccc1NC(=O)c1cc2c(s1)-c1c(C)cccc1OC2	1.2	5
Cc1cc(=O)n2nc(N3CCC(C(=O)Nc4cccc(Cl)c4C)CC3)sc2n1	0.98	-0.87
CC1CCN(S(=O)(=O)c2ccc(F)c(C(=O)NCc3ccc(F)cc3)c2)CC1	1.1	1.2
Cc1ccccc1-c1nc(CS(=O)(=O)CC(=O)Nc2cc(F)ccc2F)c(C)o1	1.1	1.7
Cc1cccc(-n2ccnc2SCC(=O)Nc2c(C)cc(C)cc2C)c1	0.79	-0.21
COc1ccc(-c2nc(-c3nonc3N)no2)cc1OC	1	0.89
Cc1ccc(S(=O)(=O)Nc2ccc(CCc3nc4ccccc4o3)cc2)cc1	1.1	0.51
Cc1cccc(NC(=O)Cn2cnc3sc(C)c(C)c3c2=O)c1	1	0.38
Cc1c(Cl)cccc1NC(=O)c1cc(C2CC2)on1	1	0.058
COc1ccc(OC)c(CN2C(=O)CCC2(C)C(=O)NC2CCCC2)c1 (centres undefined)	1	0.13
COc1ccc2c(c1)nc(SCC(C)O)n2C (centres undefined)	0.94	-1.9
CSc1nnc(-c2cc(Br)ccc2NC(C)=O)c(=O)[nH]1	1	0.0085
COc1ccc(Cl)cc1NC(=O)NC1CCN(C2CCCCC2)C1 (centres undefined)	1.1	2.4
CCN1C(=O)c2ccccc2S(=O)c2ccc(C(=O)NCCCOC)cc21 (centres undefined)	0.99	-0.34
COCCNC(=O)c1cc(Sc2nnc(C)s2)nc2ccccc12	1	0.2
O=C(c1cccs1)c1ccc(OCc2nn[nH]n2)c(Cl)c1Cl	0.97&0.9	-0.59&-1.4

One compound at a time, as listed above:
`CSc1nnc(-c2cc(Br)ccc2NC(C)=O)c(=O)[nH]1` in the list: CBX7 inh: 1; CBX7 inh z-score: 0.0085
`COCCNC(=O)c1cc(Sc2nnc(C)s2)nc2ccccc12` in the list: CBX7 inh: 1; CBX7 inh z-score: 0.2

Continued.
SMILES	CBX7 inh	CBX7 inh z-score
CCOC(=O)c1nc(Nc2cccc(C(F)(F)F)c2)c2ccccc2n1	0.98	-0.022
CCn1c(SCCC(=O)O)nc2ccccc21	1	1.7
COc1cccc(C(=O)Nc2nc3c(s2)Cc2c(Br)ccc(OC)c2-3)c1	1.1	1.5
Cc1oc(-c2ccc(Cl)cc2)nc1CN1CCCC(C(=O)NCCCN2CCN(C)CC2)C1 (centres undefined)	0.83	-2.1
Cc1onc(-c2ccccc2Cl)c1C(=O)Nc1ccc(F)cc1	1	0.72
COc1ccc2[nH]c(C)c(CCNC(=O)c3ccc(OC)c(OC)c3)c2c1	0.85	-2.7
O=C(NCc1ccc(F)cc1)c1nc2c(nnn2Cc2cccs2)c(=O)[nH]1	1.1	1.2
O=C(Cn1cnc2c(nnn2Cc2ccc(F)cc2)c1=O)OCc1ccccc1	0.96	-0.79
CCOC(=O)C1CCCN(c2c(NCCc3ccc(C)cc3)c(=O)c2=O)C1 (centres undefined)	1	0.087
CCOc1ccc(Cn2c(-c3cncs3)nc3ccccc32)cc1OCC	0.86	-3
COc1ccc(CNC(=O)CC2Oc3ccc(C)cc3NC2=O)cc1 (centres undefined)	1	0.78
CCn1c(=N)n(CC(O)COc2ccccc2OC)c2ccccc21 (centres undefined)	0.96	-0.17
COc1ccc(Nc2cc(C(=O)NCc3ccc(F)cc3)c3ccccc3n2)cc1	0.98	-0.35
CNc1nc2nonc2nc1Nc1ccc(I)cc1	0.85	-2.3
O=C(c1ccccc1)c1oc2ccccc2c1NC(=O)c1sc2ccccc2c1Cl	1.2	0.88
CC1CCN(S(=O)(=O)c2ccc3[nH]c(=O)cc(C(=O)NC4CC4)c3c2)CC1	0.91	-1.6
COc1ccccc1/C=C/c1nc2ccccc2n1C(C)C	1.4	23
Cc1cc(C)cc(NS(=O)(=O)c2ccc3nc(-c4ccccc4)[nH]c3c2)c1	0.65	-0.47
COc1cccc(-c2cc(C(F)(F)F)nc(-n3cccn3)n2)c1	0.97	-0.85
COc1ccc(-c2cc(C(=O)Nc3cccnc3)no2)cc1OC	0.96	-0.78
CCCCN(CCCNC(=O)C1CC(=O)N(CCc2ccccc2)C1)c1ccccc1 (centres undefined)	0.5*	-1*
Cc1cccc(CCNC(=O)c2cc3c(s2)-c2ccccc2OC3)c1	0.94	-1.3
CCOC(=O)c1cnc2ccccc2c1Nc1ccccc1OC	0.77	-2.5
CCCCNC(=O)c1ccc2c(c1)N(Cc1ccc(C)cc1)C(=O)CS2	0.99	-0.28
C=CCN(c1ccccc1)C(C(=O)NC1CCCCC1)c1ccc(OC)cc1 (centres undefined)	0.86	-1.4
COc1cccc(C(=O)Nc2c(-c3ccc(F)cc3)nc3cc(C)ccn23)c1OC	0.93	-1.9
Cc1ccccc1N1C(=O)c2ccccc2C1Nc1ccc(F)cc1 (centres undefined)	0.91	-1.6
COc1cc2[nH]c(=O)n(CCCCCC(=O)NCc3cccnc3)c(=O)c2cc1OC	1	0.13
Cc1ccccc1C(=O)Nc1ccc2oc(-c3ccccc3)nc2c1	1	1.5
CCC1Oc2ccc(Cl)cc2N(CC(=O)NCCCOC)C1=O (centres undefined)	1.1	1.1
CC(C)(C)C(=O)N1CC(=O)Nc2ccc(Cl)cc2C1c1ccccc1 (centres undefined)	1.1	0.81
COc1ccc(CC(=O)Nc2cc(OC)c(Cl)cc2OC)cc1	1	0.17
CCOC(=O)Cc1nnc(NC(=O)Nc2ccccc2)s1	1	0.15
CCc1ccc(-c2nc(SCC(=O)NCC3CCCO3)c(-c3ccc(F)cc3)[nH]2)cc1 (centres undefined)	1	0.18
CCCCc1ccc(NC(=O)Nc2ccc3snnc3c2)cc1	1	0.94
CCc1ccccc1NC(=O)CCc1c(C)nc2ncnn2c1C	1.1	0.86
CC(C)(C)c1ccc(OCC(=O)Nc2cccc(-c3nc4ncccc4o3)c2)cc1	0.83	-1.4
CCc1ccccc1NC(=O)c1cc(-c2ccc(Cl)c(Cl)c2)on1	1.1	1.4
CCCCN(CC)C(=O)c1cc2sc(Cl)cc2n1C	1.1	3.4
CCc1ccc2nc(N3CCCC(C(=O)O)C3)sc2c1 (centres undefined)	1.2	3.4
N#Cc1nc(-c2ccc(F)cc2)oc1N1CCCCC1	0.83	-0.2
Cc1ccc(N2C(=O)C3C4c5ccccc5C(CO)(c5ccccc54)C3C2=O)cc1Cl (centres undefined)	0.99	-0.2
COc1ccc(NC(=O)COc2ccc3oc4c(c3c2)CCCC4)cc1	0.89	-1.1
Cc1ccc(NC(=O)Cn2ncc3c2-c2cc(C)ccc2OC3)nc1	1	0.35
COc1ccc(-n2cnc3cc(NCc4nc5ccccc5n4C)ccc32)cc1	0.41*	-3.7*
COC(=O)c1ccccc1NC(=O)C1CC(c2ccc(OC)c(OC)c2)=NO1 (centres undefined)	0.84	-2.8
Cc1ccsc1CCN1C(=O)N(c2ccccc2)C(=O)C1CC(=O)Nc1ccc(F)cc1 (centres undefined)	1	1.2
CCn1c(C(=O)N2CCCc3ccccc32)cc2sc(Cl)cc21	0.81	-3.2
CCN1CCCC1CNC(=O)CN1C(=O)COc2ccc(C)cc21 (centres undefined)	1	0.19
O=C(O)c1ccc(F)c(S(=O)(=O)NCCCN2CCCC2=O)c1	0.98	-0.49
CCc1nn2c(C(=O)NCc3ccccc3Cl)cc(=O)nc2s1	1.1	1.4
Cc1ccc(NC(=O)CCc2nnc3ccc(NCCc4sccc4C)nn23)cc1	0.89	-2.4
Cc1cccc(NC(=O)NCC(c2cccnc2)N2CCOCC2)c1 (centres undefined)	1	0.078
COc1ccc(NC(=O)CC2C(=O)N(c3cccc(OC)c3)C(=O)N2Cc2ccc(C)cc2)cc1 (centres undefined)	1	1.7
CCN(CC)S(=O)(=O)c1ccc2oc(C(=O)NC(C)c3ccccc3)c(C)c2c1 (centres undefined)	1	0.23
Cc1ccc(Cc2c(C)nc3c(C(=O)N4CCCCC4)cnn3c2C)cc1	0.87	-3.5
Cc1cc(C)cc(NC(=O)c2nnn(Cc3ccc(Cl)cc3)c2N)c1	1.2	2.5
CCOC(=O)N1CCC(Nc2c(N3CCCCCC3)c(=O)c2=O)CC1	1.1	1.7
CC(C)(O)C#Cc1ccc(C(=O)N2CCC(C(O)(c3ccccc3)c3ccccc3)CC2)o1	0.96	-1.7
Cc1nc2ccccn2c1C(=O)Nc1cccc(Cl)c1	0.93	-1.3

(cont.)
SMILES	CBX7 inh	CBX7 inh z-score
O=C(NCCCN1CCOCC1)c1ccc2c(c1)N(Cc1cccc(F)c1)C(=O)c1ccccc1S2	1.1	2.5
NS(=O)(=O)c1ccc(CCNC2CC(=O)N(c3ccccc3F)C2=O)cc1 (centres undefined)	1&1	1.7&0.3
Cc1ccc(OCc2nc(C#N)c(NCc3ccc4c(c3)OCO4)o2)cc1	0.55	-23
COc1ccc(CC(=O)Nc2c(-c3ccc(F)cc3)nc3ccccn23)cc1	0.91	-1.5
CCOc1ccccc1CNc1sc2c(c1C(=O)Nc1cc(OC)ccc1OC)CCC2	1.1	0.55
COc1ccc(NC(=O)c2cnc(N3CCN(c4ccccc4OC)CC3)c3ccccc23)c(OC)c1	0.99	-0.21
